Screening results (PubChem)
Arbovirus inh = antivirals against arbovirus infection, primary screen, cell-based, full library, 10K replicate subset. arbovirus infection cell-based antiviral screen. inhibition, % at 10 µM. 0.37% of 200,000 active;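 active = inhibition from about 30%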;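 also: bluetongue infection of BSR cells; cell survival read as ATP light after 72 h; 0% = infected wells without compound and 100% = uninfected wells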
Mtb betalactam = beta-lactam sensitization of Mtb H37Rv, H37Rv | inhibition, % at 25 µM | 0.27% of 330,000 active | M. tuberculosis H37Rv growth with meropenem, percent inhibition; hits of this screen are not shown here;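 active = about 74% or more and at least 40 points above the plate without the antibiotic, then above 30% in a dose series; inconclusive = first-round hits that could not be retested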;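 also: growth measured after seven days incubation then overnight dye step; 0% = bacteria only wells and 100% = bacteria with antibiotic; twin plates without the antibiotic show which effects depend on it; some results filed as inactive read as strong as hits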
Mtb H37Rv = M. tuberculosis H37Rv growth inhibitors, H37Rv strain (AID 1626). M. tuberculosis H37Rv growth inhibition; higher % means a stronger effect. inhibition, % at 10 µM; hits with a dose series show IC50 in µM. 0.95% of 220,000 active;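 active = confirmed in a dose series; inconclusive = inhibition above 80% but not taken into the dose series; inactive = below 80% or under 30% at every dose of the series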;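 also: bacteria incubated seven days before Alamar blue readout; 0% = bacteria only wells and 100% = bacteria with antibiotic wells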
YopH inh = YopH tyrosine phosphatase inhibitors, primary screen, biochemical, fluorescence Ex485/Em525; inhibition, %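 (about 10 µM by stock and volumes)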; YopH tyrosine phosphatase [Yersinia enterocolitica]; 0.16% of 140,000 active; AID 898, 2007;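 active = inhibition of 50% or more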;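 also: controls were vehicle for no effect and minimum signal wells for full effect; inactives centre near -20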
RecA splice inh = Mtb RecA intein splicing inhibitors, primary screen, biochemical, fluorescence, HTS; 0.75% of 290,000 active; inhibition, %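 (about 9 µM by stock and volumes)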; cell-free RecA intein splicing; AID 2221, 2009; in the data active = inhibition above about 30%; inconclusive = no clear call, values can overlap the other calls;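 also: 0% = vehicle wells and 100% = reference inhibitor control wells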
Target sequence (P9WHJ3 whole entry, looked up, canonical isoform): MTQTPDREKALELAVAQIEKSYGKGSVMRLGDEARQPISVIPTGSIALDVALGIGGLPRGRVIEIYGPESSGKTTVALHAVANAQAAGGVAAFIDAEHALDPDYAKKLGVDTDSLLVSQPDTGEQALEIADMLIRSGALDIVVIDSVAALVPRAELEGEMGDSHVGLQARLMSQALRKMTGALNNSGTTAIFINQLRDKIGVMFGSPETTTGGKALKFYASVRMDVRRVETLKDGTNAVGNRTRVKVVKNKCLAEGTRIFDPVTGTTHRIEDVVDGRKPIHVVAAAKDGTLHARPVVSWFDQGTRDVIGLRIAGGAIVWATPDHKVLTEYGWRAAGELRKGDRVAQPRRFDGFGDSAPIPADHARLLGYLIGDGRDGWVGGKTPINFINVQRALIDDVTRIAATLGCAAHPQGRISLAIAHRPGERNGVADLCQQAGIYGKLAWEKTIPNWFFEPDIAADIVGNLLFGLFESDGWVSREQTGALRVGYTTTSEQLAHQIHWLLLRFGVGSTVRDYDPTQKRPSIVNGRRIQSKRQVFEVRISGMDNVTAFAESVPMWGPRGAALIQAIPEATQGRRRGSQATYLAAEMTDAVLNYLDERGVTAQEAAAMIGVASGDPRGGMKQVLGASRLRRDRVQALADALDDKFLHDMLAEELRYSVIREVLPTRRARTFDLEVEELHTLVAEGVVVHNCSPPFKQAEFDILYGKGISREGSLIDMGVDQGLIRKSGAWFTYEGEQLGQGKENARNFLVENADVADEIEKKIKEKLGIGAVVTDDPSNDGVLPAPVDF
Arbovirus inh repeat = also measured in Arbovirus inh; calls as there; inhibition, %; measured here: 10K subset replicate screen; many hits read low in the repeat;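 first of two repeat runs on a subset; 0% = infected and 100% = uninfected wells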
An asterisk follows results filed as active; i = inactive; ? = inconclusive; . = not tested or not shown. These rows are one share of the data; the hit share may differ from the screen's.

SMILES | Arbovirus inh | Mtb betalactam | Mtb H37Rv | YopH inh | RecA splice inh | others
CC(C)(C)n1cnc(C(N)=O)c1N | -6 | 8 | -5% | -24 | -0.8
CCCCOC(=O)c1ccc(NC(=S)NC(=O)c2c(Cl)cnn2C)cc1 | -7 | 98 | ? | 33 | 3.8
CC(C)(C)C(=O)N1CCC(O)(CS(=O)(=O)Cc2ccccc2)CC1 | 2 | 7 | -9% | . | -3.1
CCCCSc1nnc(-c2cc3c(C(F)(F)F)nn(C)c3s2)n1C | -7 | 10 | -4% | -43 | 0.3
CCCc1n(CC(O)COC2CCCCC2)c2ccccc2[n+]1C (configuration not stated) | -1 | -4 | 2% | . | -1.6
C=CCOc1ccc(/C=N/NC(=O)CC(=O)NC2CCCCC2)cc1 | . | 4 | . | . | 0.0
Cc1cccc(C)c1OCC(=O)Nc1ccccc1N1CCCCC1 | . | 4 | . | . | 7.3
Cc1ccc2[nH]c3c(=O)n(CC(=O)NCCCN4CCN(c5ccc(F)cc5)CC4)ncc3c2c1 | . | 5 | . | . | -0.7
CCc1ccc(CN2CCCC(CNC(=O)c3cc(OC)cc(OC)c3)C2)cc1 (configuration not stated) | . | 6 | . | . | 1.6
Cc1csc(=Nc2ccccc2)n1C | -2 | -5 | -11% | . | -0.8
O=C(CNC(=S)NC(=O)c1ccc(Cl)cc1)c1ccccc1 | 1 | 2 | 70% | -14 | -0.1
c1csc(C2=Nn3c(nnc3-c3ccncc3)SC2)c1 | 30 | 6 | -8% | -5 | 0.9
O=C(NN=C1c2ccccc2-c2ccccc21)c1ccccc1 | . | 96 | . | . | -2.0
CC(/C=N\NC(=O)c1ccc(C)nc1)=C\c1ccccc1 | -3 | 5 | 0% | -34 | -1.8
CNC(=O)C1C2C=CC3(O2)C1C(=O)N(CCOC)C3C(=O)NCc1ccc(OC)cc1 (configuration not stated) | 4 | -7 | -3% | -23 | 2.7 | Arbovirus inh repeat=5
CCc1ccc(-c2nc(CS(=O)CC(=O)NC3CC3)c(C)o2)cc1 (configuration not stated) | . | 11 | . | . | 1.0
Cc1ccc2nc(Cl)c(C3CC(c4cccs4)=NN3C(=O)CCC(=O)O)cc2c1 (configuration not stated) | -12 | -8 | 0% | -17 | 0.3
CCC(C)Sc1nnc(NC(=O)C2CCN(C(=O)c3ccco3)CC2)s1 (configuration not stated) | . | 5 | . | . | 3.9
COc1ccc(OC)c(S(=O)(=O)Nc2cc3c4c(c2)C(C)C(=O)N4CCC3)c1 (configuration not stated) | . | -15 | . | . | -1.8
O=C(Nc1ccccc1C(=O)N1CCCCC1)c1cc(F)c(F)cc1Cl | . | -3 | . | . | 4.8
CC(C)CCN1NC2(CCC(C)CC2)NC1=S (configuration not stated) | . | 4 | -9% | . | -1.8
COc1ccc(OC(C)C(=O)N(C)Cc2nc(-c3ccc(OC)cc3)no2)cc1 (configuration not stated) | . | -1 | . | . | 4.7
O=C(OCc1cc(Cl)ccc1OC(F)F)c1ccc([N+](=O)[O-])o1 | . | 100 | . | . | 15
CC(=O)N(CC1CCCO1)c1nnc(-c2ccccn2)s1 (configuration not stated) | 7 | -6 | -7% | -23 | -0.6
O=C(NCCc1ccco1)C(=O)NCC1OCCCN1S(=O)(=O)c1cc(F)ccc1F (configuration not stated) | . | -7 | . | . | 0.6
N=C1/C(=C\c2ccc(-c3ccc(C(=O)O)cc3)o2)C(=O)N=C2SC=C(c3ccccc3)N12 | . | . | 10% | . | 1.1
CCc1ccc2nc3nc(C)cc(C)c3c(N)c2c1 | -37 | 12 | 15% | -39 | i
COc1cccc(NC(=O)CCS(=O)(=O)c2ccc3c(c2)oc(=O)n3C)c1 | . | 0 | . | . | 0.3
Cc1ccc(NC(=O)CNS(=O)(=O)c2ccc(F)cc2)cc1C | -2 | 14 | 0% | . | -0.7
Cc1ccnc(NC(=O)CNC(=O)c2sc3ccccc3c2Cl)c1 | . | -14 | . | . | -2.3
COCCn1c(=NC(=O)C(C)(C)C)sc2cc([N+](=O)[O-])ccc21 | -6 | -8 | 2% | -30 | -0.3
CCOc1ccc2nc(NCCO)[nH]c2c1 | 13 | -1 | -5% | -24 | 0.1
O=C(Cc1ccc(N2CCNC2=O)cc1)N1CCCC(Nc2ccc(F)c(F)c2)C1 (configuration not stated) | . | -9 | . | . | 0.3
O=C(CN1CCC(C(=O)c2ccc(F)cc2)CC1)Nc1ccc(F)cc1 | -7 | -9 | -2% | -16 | 0.2
CCC(C)C(NC(=O)C1CCC(C)CC1)C(=O)NCc1ccccn1 (configuration not stated) | -7 | -5 | -8% | -15 | 4.7
Cc1cc(C)c2c(CC(=O)N(CCC#N)Cc3cccnc3)coc2c1 | 5 | -8 | . | 1 | 1.6
O=C(CCCSc1nnnn1-c1cccc2ccccc12)c1ccc(F)cc1 | 6 | -5 | -3% | -11 | 7.7
CC(=O)Oc1ccc(-c2cccc(C(=O)N(C)c3ccc(O)cc3)c2)cc1 | -5 | 57 | 6% | . | 7.6
Cc1c(Cc2ccccc2)sc(/N=C/c2c(O)ccc3ccccc23)c1C(N)=O | 21 | 1 | 17% | -9 | -38
CC(=O)c1c(O)cc(O)c(C(C)=O)c1O | . | -4 | -10% | . | -2.3
CC(NC(=O)c1ccccc1)C(=O)NC1=NCCS1 (configuration not stated) | 4 | -2 | 2% | -117 | -11
O=C(OCCNC(=O)c1ccc2ccccc2n1)c1ccc(F)cc1 | 9 | 95 | 7% | -21 | 5.3
COC(=O)C1CN(C#N)N(c2ccc(Cl)cc2)C12c1ccccc1-c1ccccc12 (configuration not stated) | -36 | 75 | -8% | -8 | 44*
Cc1cc(-c2n[nH]c(=S)n2/N=C/c2ccc(C)s2)n[nH]1 | -3 | 11 | -5% | -14 | -1.7
CC1CCN(C(=O)c2ccc(NC(=O)c3ccccc3)cc2)CC1 | . | -1 | . | . | -16
CC(C)(CNC(=O)c1ccc(Br)o1)N1CCOCC1 | . | 3 | . | . | -1.1
Nc1nc(CSc2ncn(-c3ccccc3)n2)cs1 | -10 | -5 | -4% | -19 | 2.0
COC(=O)c1ccc(NC(=O)C[n+]2ccccc2)cc1 | . | 9 | . | . | -0.9
COc1cc(C(=O)N2CCN(c3ncnc4sc(C)c(C)c34)CC2)cc(OC)c1OC | 2 | 5 | 0% | -19 | 12
CCCn1c(O)c(N=NC(=O)CNC(=O)c2ccncc2)c2ccccc21 | . | 0 | . | . | 1.0
Cc1sc2nc(SCC(=O)O)[nH]c(=O)c2c1C | -3 | -3 | -6% | . | -0.4
C=CCOc1cccc(C(=O)Nc2ncn[nH]2)c1 | . | 1 | . | . | -3.0
CCCc1cc(=O)[nH]c(SCCN2C(=O)c3ccccc3C2=O)n1 | 7 | -2 | -4% | . | 3.7
O=C(O)Cc1ccc2oc(-c3cccnc3)nc2c1 | 1 | -6 | 8% | . | -5.2
Cc1csc(NC(=O)C2CCCCC2)n1 | . | 1 | . | . | -1.2
Cc1nc2c(C#N)c[nH]n2c(=O)c1Cc1ccccc1 | 4 | 7 | 9% | -40 | 0.9
CCCC[C@@H]1CNC(=O)C(=O)N1CCc1cc(C(F)(F)F)cc(C(F)(F)F)c1 | . | 6 | 12% | . | -1.3
CN1CCN(S(=O)(=O)c2ccc(Cl)nc2)CC1 | 4 | -6 | 1% | -4 | -0.1
N#Cc1cc2c(nc1SCC(O)CS(=O)(=O)Cc1ccc(Cl)cc1)CCCC2 (configuration not stated) | -14 | -3 | -1% | 11 | -2.7
C=CCn1c(C)csc1=Nc1ccc(C(C)=O)cc1 | -1 | 6 | -5% | . | -0.3
(continued)
SMILES | Arbovirus inh | Mtb betalactam | Mtb H37Rv | YopH inh | RecA splice inh | others
CCOC(=O)CNc1c(N2CCN(c3ccccn3)CC2)c(=O)c1=O | -1 | 1 | 1% | -18 | -4.1 | Arbovirus inh repeat=4
CCOc1cc(NC(=S)NCCOC)c(OCC)cc1NC(=O)c1cccs1 | 0 | -5 | 2% | . | 2.2
COc1ccc(Br)cc1S(=O)(=O)N1CCCc2ccccc21 | . | 0 | . | . | 1.6
COc1ccccc1-n1nc(C(=O)O)c2ccccc2c1=O | 3 | 9 | -1% | -30 | -6.1
Cc1nc(CN2CCN(C(=O)CCc3nnc(Cc4c[nH]c5ccccc45)o3)CC2)cs1 | 7 | 0 | -1% | . | 3.1
CC(C)NC(=O)c1onc(CSc2ccc(C(C)C)cc2)c1C(=O)O | 25 | -4 | -9% | -137 | -6.1
CCn1c2ccccc2c2cc(NC(=O)C(C)Oc3ccccc3)ccc21 (configuration not stated) | -5 | 1 | 4% | -24 | 12
CCCC(C(=O)NCCc1ccc(S(N)(=O)=O)cc1)c1ccccc1 (configuration not stated) | . | -4 | . | . | 0.3
CCc1ccc(C(=O)N2CCN(c3ccc(NC(=O)c4ccco4)cc3)CC2)cc1 | . | 19 | . | . | -0.9
COc1ccc(S(=O)(=O)Nc2c(C)nc3nc[nH]n3c2=O)cc1 | -4 | 1 | -13% | . | -2.4
O=C(CCN1C(=O)C2C3C=CC(C3)C2C1=O)NC1CCCCC1 (configuration not stated) | . | 1 | . | . | 0.5
Cc1c(N=Cc2nc3ccccc3[nH]2)c(=O)n(-c2ccccc2)n1C | 3 | -4 | -14% | -18 | -5.8
Cc1ncc(CN2CCC(C(=O)Nc3ccc(-n4cccn4)cc3)CC2)s1 | . | -18 | . | . | -1.2
COc1ccc(OCc2cc(C(=O)N3CCOCC3)no2)c(Cl)c1 | . | 0 | . | . | 2.4
COc1ccc(OC)c(CNC(=O)Cn2nc(C)c3c(C)n(-c4ccc(C)cc4)nc3c2=O)c1 | . | -2 | . | . | -1.2
OCc1ccccc1CN1CCCCCC1 | . | -5 | . | . | 1.8
N/C(Cc1cccs1)=N\OC(=O)COc1ccc(Cl)cc1Cl | 4 | 6 | 17% | -21 | 12
CC(C(=O)NC(C)(C)C)N(C(=O)CS(=O)CC(=O)Nc1ccc(F)cc1)c1ccccc1F (configuration not stated) | 5 | 0 | -4% | . | -0.6
Clc1ccc(/C=N/N2CCCCC2)cc1 | . | 0 | 12% | . | 0.4
CC(C)OC(=O)C[N+](C)(C)CCN1C(=O)C2C(c3ccccc3)C=CC(c3ccccc3)C2C1=O (configuration not stated) | 7 | -7 | 4% | . | -1.0
COc1cc2sc(NC(=O)c3ccco3)nc2cc1Cl | . | -1 | . | . | 0.2
CCc1cc(=O)[nH]c(SCc2cccc3ccccc23)n1 | . | ? | . | . | -1.0
O=c1oc2ccccc2c(NCc2ccc(Cl)cc2)c1[N+](=O)[O-] | . | -13 | 2% | . | -4.1

Structural class: the entries above containing an NH in an aromatic ring
SMILES | Arbovirus inh | Mtb betalactam | Mtb H37Rv | YopH inh | RecA splice inh | others
Cc1ccc2[nH]c3c(=O)n(CC(=O)NCCCN4CCN(c5ccc(F)cc5)CC4)ncc3c2c1 | . | 5 | . | . | -0.7
CCOc1ccc2nc(NCCO)[nH]c2c1 | 13 | -1 | -5% | -24 | 0.1
Cc1cc(-c2n[nH]c(=S)n2/N=C/c2ccc(C)s2)n[nH]1 | -3 | 11 | -5% | -14 | -1.7
Cc1sc2nc(SCC(=O)O)[nH]c(=O)c2c1C | -3 | -3 | -6% | . | -0.4
C=CCOc1cccc(C(=O)Nc2ncn[nH]2)c1 | . | 1 | . | . | -3.0
CCCc1cc(=O)[nH]c(SCCN2C(=O)c3ccccc3C2=O)n1 | 7 | -2 | -4% | . | 3.7
Cc1nc2c(C#N)c[nH]n2c(=O)c1Cc1ccccc1 | 4 | 7 | 9% | -40 | 0.9
Cc1nc(CN2CCN(C(=O)CCc3nnc(Cc4c[nH]c5ccccc45)o3)CC2)cs1 | 7 | 0 | -1% | . | 3.1
COc1ccc(S(=O)(=O)Nc2c(C)nc3nc[nH]n3c2=O)cc1 | -4 | 1 | -13% | . | -2.4
Cc1c(N=Cc2nc3ccccc3[nH]2)c(=O)n(-c2ccccc2)n1C | 3 | -4 | -14% | -18 | -5.8
CCc1cc(=O)[nH]c(SCc2cccc3ccccc23)n1 | . | ? | . | . | -1.0
